MLL AF4-AF9 inh: MLL-AF4/AF9 protein interaction inhibition | P42568 | AlphaScreen, biotin-AF4 peptide binding to FLAG-AF9 | inhibition, % at 10 µM | 0.47% of 350,000 active | AID 651704;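 active means every replicate reaching a set inhibition limit, whatever the replicate mean, cut at about 25% in these data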;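 further: 0% = plate neutral control median and 100% = total signal loss; the record names both 10 and 1 µM as test concentration; the first replicate is given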
FGF22 binding: shifts melting point of recombinant human FGF22; Q9HCT0; recombinant FGF22 thermal shift, SYPRO orange fluorescence; percent of sucrose octasulfate shift, DMSO zero; calls only at 9.99 µM; 1.5% of 340,000 active; AID 651658;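 active means melting point raised past a set limit in the mean and every replicate; three in four hits are not shown here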
Target sequence (Q9HCT0 whole entry, looked up): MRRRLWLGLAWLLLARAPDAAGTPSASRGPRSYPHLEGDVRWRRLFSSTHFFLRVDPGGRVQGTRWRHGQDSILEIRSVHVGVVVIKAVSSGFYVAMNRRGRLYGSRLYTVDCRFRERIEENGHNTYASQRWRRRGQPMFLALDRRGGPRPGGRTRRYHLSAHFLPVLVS
T cruzi inh: T. cruzi replication inhibition. inhibition, % (concentration not given with the values). 1.4% of 300,000 active. AID 1885. T. cruzi beta-gal in NIH3T3, luminescence, 90 h;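 active means mean inhibition across valid replicates above about 55%, limit read from the data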;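 further: signal also drops with host cell toxicity which is not excluded here; 0% = plate median of DMSO wells and 100% = zero luminescence signal; higher percent means less beta-gal luminescence so fewer parasites; stock transfer was 50 nL into about 50 µL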
UCH37 DUB inh: blocks the human deubiquitinase UCH37 | purified proteasome/UCH37, Ub-AMC cleavage fluorescence | inhibition, % (test concentration not listed) | 0.33% of 330,000 active | AID 588478;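 active means mean of two replicates above 20%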;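 further: 0% = compound-free wells with enzyme and 100% = wells lacking proteasome; stock transfer was 100 nL into about 20 µL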
Target sequence (Q9Y5K5 whole entry, looked up): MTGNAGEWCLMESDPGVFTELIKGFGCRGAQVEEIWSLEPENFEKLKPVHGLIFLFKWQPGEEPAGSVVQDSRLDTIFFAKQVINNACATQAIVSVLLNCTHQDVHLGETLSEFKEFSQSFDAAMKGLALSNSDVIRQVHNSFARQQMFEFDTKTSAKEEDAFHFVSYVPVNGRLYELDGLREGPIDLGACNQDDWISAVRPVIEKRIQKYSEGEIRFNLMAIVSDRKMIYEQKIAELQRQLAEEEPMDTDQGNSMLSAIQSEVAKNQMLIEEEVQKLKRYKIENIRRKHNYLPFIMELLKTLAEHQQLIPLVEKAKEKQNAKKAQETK
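Material: Human UCH37 enzyme supplied as purified proteasome complex | Schedule: 30 min preincubation with enzyme, 25 min cleavage at room temperature | Detection: AMC fluorescence 355/460 nm | Measure: % inhibition of Ub-AMC cleavage fluorescence | Controls: Wells without proteasome as full block, compound-free enzyme plus substrate as uninhibited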
E coli growth: E. coli growth inhibition | Escherichia coli growth, OD600, 23 h; active compounds read low | OD600 absorbance (no concentration beside the values) | 0.21% of 330,000 active | AID 1053175;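 active means OD600 absorbance below the run mean of sample wells minus 3.6 SD, in any replicate, cut at about 0.56 in these data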;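 further: stock transfer was 300 nL into about 60 µL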
Beta apoptosis: blocks beta cell apoptosis; INS-1E cytokine-induced death, ATP luminescence, 48 h; percent of positive-control rescue, neutral wells zero; protection from apoptosis, % (concentration not given with the values); 0.8% of 300,000 active;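 active means all replicates at 75% or more, or half of them and the mean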;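 further: 0% = cytokine-treated negative control wells and 100% = positive control rescue; higher means more ATP so stronger rescue from cytokine killing; wells of about 40 µL received 100 nL stock; the first replicate is given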
A1 inh: inhibitors of the anti-apoptotic protein A1, read as caspase activation | MEF A1-2A-BIM cells, Caspase-Glo 3/7 luminescence, 3 h; percent of clofoctol response, vehicle zero | caspase activation, % (concentration not given with the values) | 0.066% of 330,000 active | AID 2462;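 active means over half of replicate activation scores above 10%, or exactly half above 10 with the replicate mean above 10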;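 further: wells of about 30 µL received 50 nL stock; many hits fall short of the cut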
rRNA inh HTS: inhibits bacterial ribosomal RNA function over humanized ribosomes; E. coli WT GFP vs humanized-ribosome RFP mutants, fluorescence, 24 h; active compounds read low; DMSO median 0, no signal -100; GFP signal change (wild-type ribosome), % (concentration not given with the values); 1.6% of 350,000 active;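 active means significant combined selectivity score with lowered wild-type GFP, culture density cut under 30%, mutant RFP and density less affected; inactive means any of these conditions unmet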; further: one replicate is shown; some compounds called inactive have numbers as strong as hits
rRNA inh HTS OD600: recorded beside rRNA inh HTS, whose call it bears; OD600 change, %; measured here: OD600 growth;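 optical density of the mix in the first replicate; 0 = DMSO median and -100 = no signal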
rRNA inh HTS RFP: recorded beside rRNA inh HTS, whose call it bears; RFP signal change, %; measured here: RFP humanized mutant strains;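 first replicate; 0 = DMSO median and -100 = no signal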
The depositor's hits bear a star; i = inactive; / = no result given; & = joins results of further samples.

SMILES,MLL AF4-AF9 inh,FGF22 binding,T cruzi inh,UCH37 DUB inh,E coli growth,Beta apoptosis,A1 inh,rRNA inh HTS,rRNA inh HTS OD600,rRNA inh HTS RFP
COc1ccccc1CCNC(=O)C(=O)NCC1OCCN1S(=O)(=O)c1ccc(OC)c(OC)c1 (centres undefined),1.3,i,-1,1.1,0.72,-10,-0.2,-4,-11,-4.3
Nc1ccc(C(=O)OCc2nc3cc4ccccc4cc3[nH]2)cc1,-1.3,i,11,/,/,-1,1.3,-23,-21,-3.1
O=C(NCCc1nc(-c2ccccc2)no1)c1ccccc1,/,/,-12,-0.4,0.63,-4,-0.3,/,/,/
CC(c1ccccc1F)n1cc(C(=O)NCc2ccncc2)nn1 (centres undefined),/,/,-1,-0.5,0.73,-2,1.6,/,/,/
COc1cc(CN2CCCC(C)C2)ccc1OCc1ccccc1 (centres undefined),0.4,i,35,0.1,0.61,2,-0.7,0,-6,2.3
Cc1cc(NC(=O)CCC(=O)N(Cc2ccccc2)C(C(=O)NC2CCCC2)c2ccc(C)o2)no1 (centres undefined),0.7,i,17,/,/,-4,0.0,0,1,-1.3
O=C(CSc1ccc2ccccc2n1)Nc1ccc(N2CCOCC2)cc1,-1.5,/,32,3.2,0.66,-4,0.4,3,7,-2.2
CC1=NN(c2ccc(C(=O)O)c(N)c2)C(=O)C1,-22,i,-4,5.7,0.63,/,0.4,21,13,1.4
C[C@H]1CN(S(=O)C(C)(C)C)[C@@H](CCO)/C1=C\CCO (some centres undefined),-0.3,i,/,-0.2,0.69,/,/,25,7,-0.1
Cc1ccc([N+](=O)[O-])cc1NC(=S)NC(=O)c1cccs1,/,/,-9,7.2,0.73,1,0.7,/,/,/
Cc1cc(C)c(OCC(=O)Nc2nc3ccccc3[nH]2)c(C)c1,-0.8,i,19,/,/,7,1.1,21,18,3.2
O=C(O)C1=C[C@H](c2coc3ccccc3c2=O)C[C@H](OCc2ccc(CO)cc2)O1,-4.8&0.1,i,-5,-1.4,0.81,-10,1.2,21,17,-6.8
Cc1cccc(OCC(=O)Nc2ccc3c4c(cccc24)CC3)c1C,-1.9,i,-24,1.1,0.73,10,1.1,20,14,3.0
Cn1c(SCC(=O)Nc2ccc3nc(SCC(=O)NC4CC4)sc3c2)nnc1-c1ccccc1,/,/,5,2.2,0.7,0,-0.2,/,/,/
NS(=O)(=O)c1ccc(CCNC(=O)CSCc2ccccc2)cc1,-1.0,i,-7,-0.6,0.63,-4,0.6,8,7,2.5
CCC1CCC/C1=N\NC(=O)c1ccoc1C (centres undefined),-3.3,i,/,/,/,1,0.6,10,11,-2.1
CC1CCN(CC(=O)NNC(=O)c2cccc(Br)c2)CC1,1.2,i,-3,3.6,0.7,-4,0.2,5,2,-0.2
Cc1ccccc1NC(=O)CCC(=O)OCCCC(F)(F)C(F)(F)F,/,/,-5,1.3,0.71,-3,-0.2,/,/,/
CCOC(=O)c1c(NC(=O)C2CCCN(S(=O)(=O)c3ccc(C)cc3)C2)sc2c1CCCC2 (centres undefined),/,/,27,-6.4,0.69,1,-0.4,/,/,/
COc1c(NC(C)=O)c2ccccc2c2ccccc12,-5.6,i,-3,-0.8,0.64,4,-0.3,3,4,2.6

A section of the results above:
SMILES,MLL AF4-AF9 inh,FGF22 binding,T cruzi inh,UCH37 DUB inh,E coli growth,Beta apoptosis,A1 inh,rRNA inh HTS,rRNA inh HTS OD600,rRNA inh HTS RFP
COc1ccccc1CCNC(=O)C(=O)NCC1OCCN1S(=O)(=O)c1ccc(OC)c(OC)c1 (centres undefined),1.3,i,-1,1.1,0.72,-10,-0.2,-4,-11,-4.3
Nc1ccc(C(=O)OCc2nc3cc4ccccc4cc3[nH]2)cc1,-1.3,i,11,/,/,-1,1.3,-23,-21,-3.1
O=C(NCCc1nc(-c2ccccc2)no1)c1ccccc1,/,/,-12,-0.4,0.63,-4,-0.3,/,/,/

New compounds follow:
SMILES,MLL AF4-AF9 inh,FGF22 binding,T cruzi inh,UCH37 DUB inh,E coli growth,Beta apoptosis,A1 inh,rRNA inh HTS,rRNA inh HTS OD600,rRNA inh HTS RFP
CC1(C)CC(=O)C(C=NCCN2CCNC2=O)=C(O)C1,-0.7,i,-9,1.9,0.68,-3,0.3,-1,0,-1.5
O=C1COc2ccc(C(=O)COC(=O)COc3ccccc3[N+](=O)[O-])cc2N1,-1.2,i,1,4.8,0.68,-5,-0.4,5,5,3.9
C=CCn1c(N)cc(=O)nc1SCC(=O)Nc1ccccc1C(N)=O,0.4,i,-17,2.8,0.72,-1,0.1,6,9,4.3
CC(=O)Nc1sc(N/N=C/c2ccccc2)nc1-c1ccc(C)cc1,8.5,i,-8,/,/,-3,0.4,-4,8,-0.4
Cc1ccccc1NC(=O)COC(=O)c1ccc2nc(C)c(C)nc2c1,-1.7,i,/,5.3,0.7,10,0.1,17,3,1.7
COc1cccc(NC(=O)CSc2nc(N)cc(N)n2)c1,1.0,i,-11,1.5,0.67,-3,0.4,-13,-7,-4.6
CC(=O)Nc1ccc(NC(=O)c2cc(-c3cc(C)c(C)cc3O)n[nH]2)cc1,-1.3,i,-11,-0.1,0.69,-7,-0.2,5,3,-2.5
O=C(NNC1=NCCCCC1)Nc1cccc(Cl)c1,-2.1,i,-14,0.4,0.7,/,/,10,13,0.7
CC(C)CN(CC(C)C)S(=O)(=O)N1CCC(C(=O)NCc2ccccn2)CC1,7.9,i,4,2.0,0.7,-2,0.2,5,2,-4.2
CC1CN(C(=O)CCNC(=O)c2ccc(Br)cc2)CC(C)O1 (centres undefined),1.1,i,1,1.4,0.62,-4,0.8,13,13,0.2
CCOc1ccc(CCNC(=O)Cn2ncn3nc(-c4ccc(OC)cc4)cc3c2=O)cc1,-11,i,-9,5.6,0.71,7,0.2,6,6,1.8
Cc1ccc(NC(=S)N(CCN2CCOCC2)Cc2ccccc2F)cc1,2.4,i,2,6.3,0.69,5,0.3,-5,-2,1.4
O=C1c2ccc3c4c(ccc(c24)C(=O)N1c1cccc(O)c1)C(=O)N(c1cccc(O)c1)C3=O,-15,i,10,5.4,0.72,118*,-0.8,-24,-28,-3.9
COc1ccc(/C=C2\CCc3ccccc3C2=O)c(OC)c1OC,9.4,i,-5,3.5,0.68,7,0.7,-22*,-17*,-4.3*
O=C(Nc1cccnc1Cl)c1ccc(Cl)c([N+](=O)[O-])c1,/,/,12,0.6,0.66,-3,0.3,/,/,/
CCOC(=O)c1ccc(COC(=O)CCc2nc(-c3ccccc3)c(-c3ccccc3)o2)cc1,/,/,9,-3.1,0.72,0,-0.2,/,/,/
OC(c1ccc(Cl)cc1Cl)C(Cc1cccnc1)n1cncn1 (centres undefined),/,/,6,0.2,0.72,-8,0.5,/,/,/
CC1CCCCN1N=Nc1nc2c([nH]1)c(=O)n(C)c(=O)n2C (centres undefined),4.8,i,/,17,0.66,/,/,2,7,0.7
CN(C)C(CNC(=O)c1oc2ccccc2c1CSc1ncn[nH]1)c1ccco1 (centres undefined),4.3,i,/,-3.6,0.7,-6,-0.5,3,3,4.3
O=C(NC(Cc1c[nH]c2ccccc12)c1nnc2n1CCCCC2)c1cccs1 (centres undefined),/,/,-10,-0.6,0.68,-2,-0.4,/,/,/

Overlap with the part before: seven entries; new compounds follow.
SMILES,MLL AF4-AF9 inh,FGF22 binding,T cruzi inh,UCH37 DUB inh,E coli growth,Beta apoptosis,A1 inh,rRNA inh HTS,rRNA inh HTS OD600,rRNA inh HTS RFP
COc1ccc(/C=C2\CCc3ccccc3C2=O)c(OC)c1OC,9.4,i,-5,3.5,0.68,7,0.7,-22*,-17*,-4.3*
O=C(Nc1cccnc1Cl)c1ccc(Cl)c([N+](=O)[O-])c1,/,/,12,0.6,0.66,-3,0.3,/,/,/
CCOC(=O)c1ccc(COC(=O)CCc2nc(-c3ccccc3)c(-c3ccccc3)o2)cc1,/,/,9,-3.1,0.72,0,-0.2,/,/,/
OC(c1ccc(Cl)cc1Cl)C(Cc1cccnc1)n1cncn1 (centres undefined),/,/,6,0.2,0.72,-8,0.5,/,/,/
CC1CCCCN1N=Nc1nc2c([nH]1)c(=O)n(C)c(=O)n2C (centres undefined),4.8,i,/,17,0.66,/,/,2,7,0.7
CN(C)C(CNC(=O)c1oc2ccccc2c1CSc1ncn[nH]1)c1ccco1 (centres undefined),4.3,i,/,-3.6,0.7,-6,-0.5,3,3,4.3
O=C(NC(Cc1c[nH]c2ccccc12)c1nnc2n1CCCCC2)c1cccs1 (centres undefined),/,/,-10,-0.6,0.68,-2,-0.4,/,/,/
CC1CCCC(NC(=O)COC(=O)c2ccc(N(C)C)cc2)C1C (centres undefined),/,/,-16,-7.0,0.73,1,-0.4,/,/,/
COc1cc(OC)c(-c2nnc(-c3ccc(OC)c(OC)c3OC)o2)cc1OC,/,/,13,-214,0.74,5,0.2,/,/,/
O=C(O)CC12CC3CC(C1)CC(n1ncc(NCc4ccc(F)cc4)c(Cl)c1=O)(C3)C2,0.2,i,3,0.0,0.66,2,1.3,-4,-5,-8.3
COC(=O)C1=C(C)NC(=O)C1(NC(=O)c1cccnc1)C(F)(F)F (centres undefined),/,/,-8,3.9,0.67,-2,-0.3,9,0,-6.1
CC(=O)Nc1cccc(NC(=O)COC(=O)C2CC3CCCC(C2)C3=O)c1 (centres undefined),0.2,i,-5,3.8,0.7,-4,-0.8,/,/,/
O=C(Nc1ccc(NC(=O)C23CC4CC(CC(C4)C2)C3)cc1)c1cc(F)c(F)cc1Cl,-3.8,i,-3,2.2,0.74,-7,0.8,8,2,-1.6
COc1ccc(-c2nn(CCC#N)cc2C(=O)Nc2cccc(C(=O)O)c2)cc1[N+](=O)[O-],-6.2,i,-4,3.6,0.67,-11,-0.3,-1,8,-1.5
COc1cccc(-n2nnc3c(=O)n(Cc4c(F)cccc4Cl)cnc32)c1,/,/,20,-0.6,0.68,-3,-0.7,/,/,/
CCCNC(=O)CSCc1nc(-c2ccc(SC)cc2)oc1C,3.1,i,-8,1.0,0.68,-6,-1.1,-20,-21,-3.2
O=C(O)Cc1ccc(NC(=O)Nc2cccc(Cl)c2)cc1,-1.6,i,0,-0.6,0.66,-1,-10,0,-3,0.0
O=C(O)c1cc(-c2ccc3c(c2)OCO3)nc2ccc(Cl)cc12,-3.2,i,1,3.8,0.69,1,-0.3,-31,-32,-8.3
COC(=O)[C@@H]1C[C@@]2(O)[C@@H](O)[C@@H](O)[C@@H](O)C[C@H]2N1Cc1ccc(Cl)cc1,-21,i,-2,-0.2,/,2,-0.1,20,16,-5.7
CC(=O)Nc1ccc(S(=O)(=O)N2CCN(C(=O)c3cccnc3)CC2)cc1,/,/,-13,6.9,0.72,-6,0.2,/,/,/

Compound activity deposited in PubChem BioAssay by several laboratories.

A portion of the library, so the mix of outcomes need not match the whole.
